# Assay outcomes: PubChem, several laboratories
# E coli growth – inhibitors of Escherichia coli growth; OD600, 23 h; stronger effect = lower value; OD600 absorbance (concentration not given with the values); actives 0.21% (n = 330,000); AID 1053175;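 active = OD600 absorbance below the run mean of sample wells minus 3.6 SD, in any replicate, cut at about 0.56 in these data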;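 also: stock transfer was 300 nL into about 60 µL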
# ALR inh – blocks human ALR sulfhydryl oxidase activity; P55789; purified ALR, DTT oxidation, H2O2 HRP-luminol luminescence; inhibition, % (concentration not given with the values); actives 3.8% (n = 290,000);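 active = mean and each replicate at 75% or more; inconclusive = only one of the two met; inactive = neither met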;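 also: stock transfer was 7.5 nL into about 7.5 µL; 0% = neutral wells and 100% = wells with inactivated enzyme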
# FGF22 binding – FGF22 (human) thermal shift binding; Q9HCT0; recombinant FGF22 thermal shift, SYPRO orange fluorescence; percent of sucrose octasulfate shift, DMSO zero; calls only at 9.99 µM; actives 1.5% (n = 340,000); AID 651658;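 active = melting point raised past a set limit in the mean and every replicate; inconclusive = no clear call; three in four hits are not shown here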
# Target sequence (Q9HCT0 whole entry, looked up): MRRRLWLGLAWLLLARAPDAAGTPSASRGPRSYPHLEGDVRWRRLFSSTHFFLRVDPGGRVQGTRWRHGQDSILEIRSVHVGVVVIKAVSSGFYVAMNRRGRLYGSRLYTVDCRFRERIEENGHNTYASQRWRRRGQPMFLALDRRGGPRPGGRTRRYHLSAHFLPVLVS
# rRNA inh HTS – inhibitors of bacterial rRNA selective over humanized ribosomes. actives 1.6% (n = 350,000). AID 720706. E. coli WT GFP vs humanized-ribosome RFP mutants, fluorescence, 24 h; stronger effect = lower value; DMSO median 0, no signal -100. GFP signal change (wild-type ribosome), % (concentration not given with the values);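 active = significant combined selectivity score with lowered wild-type GFP, culture density cut under 30%, mutant RFP and density less affected; inactive = any of these conditions unmet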; also: one replicate is shown; some compounds called inactive have numbers as strong as hits
# HNF4A DNA FP – change in binding of human HNF4 alpha to DNA; actives 0.3% (n = 360,000); P41235; activity change, % at 10 µM; AID 1224865; HNF4a-FITC DNA binding, fluorescence polarization, 1 h; in the data active = activity change above about 30%, passing the limit was not always enough;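 also: controls were the assay level and a saturating level of protein; the project sought stronger binding though the title names inhibitors; some compounds called inactive have numbers as strong as hits; positive values seem to mean higher polarization but the record does not say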
# B2AR ag – activates human beta-2 adrenergic receptor causing internalization; P07550; Am2.2-beta2AR cells, FAP receptor internalization, flow cytometry; reference of the scale not given here; response, % (concentration not given with the values); actives 0.43% (n = 340,000); AID 504454;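 active = response above a set limit, near 3 SD of response in nonfluorescent compounds, cut at about 42% in these data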;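 also: stock transfer was 100 nL into about 11 µL; a reference agonist was the positive control; negative values mostly stem from fluorescent compounds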
# Target sequence (P07550 whole entry, looked up): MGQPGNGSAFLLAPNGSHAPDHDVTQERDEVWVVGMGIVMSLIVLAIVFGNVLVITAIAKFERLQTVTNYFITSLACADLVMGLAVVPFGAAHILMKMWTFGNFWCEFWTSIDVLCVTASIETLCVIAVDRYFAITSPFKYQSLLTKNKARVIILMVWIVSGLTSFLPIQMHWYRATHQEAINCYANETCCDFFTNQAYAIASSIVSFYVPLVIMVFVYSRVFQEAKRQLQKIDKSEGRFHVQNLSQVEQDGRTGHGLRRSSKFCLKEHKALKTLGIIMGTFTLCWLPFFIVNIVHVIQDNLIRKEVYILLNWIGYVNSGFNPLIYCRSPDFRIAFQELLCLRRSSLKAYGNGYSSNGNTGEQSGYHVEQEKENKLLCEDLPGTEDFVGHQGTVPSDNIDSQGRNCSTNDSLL
# UCH37 inh – inhibitors of human deubiquitinating enzyme UCH37 | Q9Y5K5 | inhibition, % (test concentration not listed) | actives 0.33% (n = 330,000) | purified proteasome/UCH37, Ub-AMC cleavage fluorescence | AID 588478;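 active = mean of two replicates above 20%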;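 also: 0% = compound-free wells with enzyme and 100% = wells lacking proteasome; stock transfer was 100 nL into about 20 µL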
# Target sequence (Q9Y5K5 whole entry, looked up): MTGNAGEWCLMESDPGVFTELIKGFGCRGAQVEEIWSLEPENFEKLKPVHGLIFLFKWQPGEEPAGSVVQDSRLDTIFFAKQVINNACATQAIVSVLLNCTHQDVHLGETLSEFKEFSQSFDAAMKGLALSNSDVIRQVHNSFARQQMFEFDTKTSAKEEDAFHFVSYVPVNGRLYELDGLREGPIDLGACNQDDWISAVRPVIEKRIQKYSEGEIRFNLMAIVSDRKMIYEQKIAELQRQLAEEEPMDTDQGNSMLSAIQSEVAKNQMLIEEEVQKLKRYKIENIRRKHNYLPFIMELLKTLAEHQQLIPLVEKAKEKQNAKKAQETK
#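 Test system – human UCH37 enzyme supplied as purified proteasome complex · Incubation – 30 min preincubation with enzyme, 25 min cleavage at room temperature · Detection – AMC fluorescence from Ub-AMC cleavage, excitation 355 nm, emission 460 nm · Benchmarks – no-proteasome wells (full inhibition) and compound-free wells (no inhibition)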
# rRNA inh HTS OD600 – further read-out of rRNA inh HTS, marked with its call; OD600 change, %; measured here: OD600 growth;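 optical density of the mix in the first replicate; 0 = DMSO median and -100 = no signal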
# rRNA inh HTS RFP – recorded beside rRNA inh HTS, whose call it bears; RFP signal change, %; measured here: RFP humanized mutant strains;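 first replicate; 0 = DMSO median and -100 = no signal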
# * hit, by the source's call; i = inactive; ? = inconclusive; · = no result given; & = joins results of further samples. A portion of the library; count on the stated rates, not on these rows.
B2AR ag,HNF4A DNA FP,rRNA inh HTS RFP,rRNA inh HTS OD600,rRNA inh HTS,UCH37 inh,ALR inh,FGF22 binding,E coli growth,mol
-2,-4.4,2.7,7,17,5.2,-2,i,0.69,CC(=Nc1ccccc1)C1=C(O)COC1=O
-6,5.8,-2.4,7,-3,-2.0,86*,i,0.71,O=C(c1cccc(C(F)(F)F)c1)C1CCCN(C(=O)c2cc(C3CC3)[nH]n2)C1 (stereo not drawn)
1,-2.2,2.7,14,16,-44,·,i,0.74,COc1ccc(/C=C/c2c(-c3ccc(OC)cc3)sc3cc(OC)c(OC)cc23)cc1
-2,-0.2,·,·,·,8.9,-4,i,0.67,COC(=O)/C=C1\NCCNC1=O
-6,-0.6,6.9*,-20*,-28*,i,·,i,0.7,CCC1(C)Cc2ccccc2-c2nc(NCCCO)[nH]c(=O)c21 (stereo not drawn)
-4,2.3,·,·,·,3.9,81*,i,0.64,O=c1c(-c2ccc(O)cc2O)coc2cc(O)cc(O)c12
5,-0.9,·,·,·,-1.8,-1,·,0.69,Cc1cc(C)n(C(=O)c2c([N+](=O)[O-])c(C)nn2C)n1
-4,-1.5,-5.2,-24,-22,-1.0,12,i,0.67,CCOc1ccc(Oc2ccc(Cl)cc2N)cc1
0,-2.5,·,·,·,-0.7,0,·,0.73,COCn1c(-c2ccc(OC)cc2)nc2ccccc21
20,-3.2,-1.9,5,3,3.5,0,i,0.75,CCOC(=O)CN1CC23C=CC(O2)C(C(=O)Nc2ccc(C(C)=O)cc2)C3C1=O (stereo not drawn)
15,4.8,3.1,0,18,8.1,4,i,0.74,CC1=C(C#N)C(c2ccccc2)C2=C(N1)c1ccccc1C2=O (stereo not drawn)
6,3.4,·,·,·,2.9,-7,·,0.77,COc1ccc(CCNC(=O)c2ccc(CNS(=O)(=O)c3cc(C)ccc3C)cc2)cc1OC

# (next part)
B2AR ag,HNF4A DNA FP,rRNA inh HTS RFP,rRNA inh HTS OD600,rRNA inh HTS,UCH37 inh,ALR inh,FGF22 binding,E coli growth,mol
5,-1.0,·,·,·,2.6,·,·,0.71,COc1ccc(S(=O)(=O)NC(CC(=O)NCC2CCCO2)c2ccco2)cc1 (stereo not drawn)
2,-0.1,·,·,·,-0.8,-9,·,0.74,O=C(COC(=O)CCc1nc2ccccc2s1)Nc1cccc(S(=O)(=O)N2CCOCC2)c1
1,-0.1,·,·,·,1.7,-5,·,0.75,N#CCCN1CCN(C(CNS(=O)(=O)c2ccc(Cl)cc2)c2ccccc2)CC1 (stereo not drawn)
-312,-0.1,5.2,6,-7,·,0,i,·,Cc1ccc(NC(=S)N/N=C2\CCCCC2C)cc1 (stereo not drawn)
-1,0.6,·,·,·,-0.9,73,·,0.7,Cc1nn(CCC(=O)NNC(=S)Nc2ccc(Cl)cc2)c(C)c1[N+](=O)[O-]
0,4.3,·,·,·,3.9,?,·,0.76,COc1ccccc1NC(=S)NNC(=O)c1cc(C)nn1C
0,1.0,-3.7,-14,-13,3.0,43,i,0.69,O=C(COc1ccc(-c2ccccc2)cc1)NN=C1CCCC1
10,1.3,0.7,1,5,0.4,·,i,0.68,O=C(CNC(=O)c1ccccc1Cl)Nc1ccncc1
-6,-1.0,2.4,12,13,6.6,-7,i,0.75,CC(Oc1ccc(Cl)cc1Cl)C(=O)NCCCN1CCOCC1 (stereo not drawn)
0,-4.5,·,·,·,6.4,-9,·,0.63,O=C(CC(C(=O)N1CCc2ccccc21)n1ccnc1)NCC1CCCO1 (stereo not drawn)
-3,-3.8,-1.3,9,12,2.4,·,i,0.73,CCN(C(=O)CN1CCCC(C)C1)c1c(N)n(Cc2ccccc2)c(=O)[nH]c1=O (stereo not drawn)
4,2.4,0.7,5,22,1.7,-3,i,0.65,COc1ccc(C(=O)Nc2c(N)nc[nH]c2=O)cc1

# Continuation.
B2AR ag,HNF4A DNA FP,rRNA inh HTS RFP,rRNA inh HTS OD600,rRNA inh HTS,UCH37 inh,ALR inh,FGF22 binding,E coli growth,mol
-1,1.0,-4.5,-14,-10,3.4,-15,i,0.73,CCn1c(SCC(=O)Nc2ccc(OC)c(OC)c2)nnc1-c1c[nH]c2ccccc12
1,5.4,-12,-80,-49,5.7,3,i,0.6,CCc1ccc(NC(=O)C[n+]2cc(-c3ccc(C)cc3)n3c2CCC3)cc1
-5,3.7,0.3,-3,2,7.1,7,i,0.64,COc1ccc(C2C(C(=O)c3ccc(C)o3)=C(O)C(=O)N2Cc2cccnc2)cc1 (stereo not drawn)
-4,4.3,-2.5,6,2,6.6,·,i,0.72,COc1ccc(-n2nc3c(c2NC(=O)C2CCCC2)CS(=O)C3)cc1 (stereo not drawn)
4,-0.6,·,·,·,-0.1,0,·,0.68,CC(C)OC(=O)CC12CN(C)CC(CC(=O)OC(C)C)(CN(C)C1)C2=O
0,4.5,·,·,·,2.8,10,·,0.78,Cc1ccc(C(=O)NNC(=O)C2CCN(Cc3ccc(Cl)c(Cl)c3)CC2)cc1
·,0.8,1.0,-2,-2,·,·,i,·,CC1=C(C(=O)N2CCOCC2)CC(CC(=O)NC2CCCC2)C(=O)N1Cc1ccc(C(C)(C)C)cc1 (stereo not drawn)
3,3.4,·,·,·,0.8,1,·,0.67,Cc1c(NC(=O)CSc2nnc3sc4ccccc4n23)c(=O)n(-c2ccccc2)n1C
-4,-2.8,·,·,·,0.8,·,i,0.67,Cc1cc(N2O[C@]34C=C[C@]25C[C@@H](O)CC[C@]5(C)C3CC[C@]2(C)[C@@H]([C@H](C)/C=C/[C@H](C)C(C)C)CC[C@H]24)no1 (stereo partly drawn)
-10,-0.4,-0.4&-9.8,2&-13,-2&0,-45,1,i,0.76,C[C@H]1CN([C@@H](C)CO)C(=O)Cc2cc(NC(=O)C3CC3)ccc2O[C@H]1CN(C)Cc1ccc(C(=O)O)cc1
6,0.6,1.3,14,8,4.1,-10,i,0.7,Cc1ccc(CNC(=O)CN2C(=O)NC(C)(c3ccc(Cl)cc3)C2=O)cc1 (stereo not drawn)
-3,-2.2,-0.7,3,3,2.0,·,i,0.71,CCOP(=O)(NC12CC3CC(CC(C3)C1)C2)NC12CC3CC(CC(C3)C1)C2

# (further entries)
B2AR ag,HNF4A DNA FP,rRNA inh HTS RFP,rRNA inh HTS OD600,rRNA inh HTS,UCH37 inh,ALR inh,FGF22 binding,E coli growth,mol
-10,7.2,9.3,11,12,·,68,i,·,Cc1nnc(N/N=C/c2c[nH]c3ccccc23)[nH]c1=O
10,1.8,4.2,0,7,-5.2,-16,i,0.68,O=C(Nc1ccccc1C(=O)Nc1ccccc1)c1ccco1
-3,0.2,1.1,3,0,1.1,-8,i,0.68,COc1ccc(N2C(=O)C3CCCN3C2c2ccc(Cl)cc2)cc1 (stereo not drawn)
-11,-20,-2.2,16,6,0.7,35,i,0.68,O=C1Nc2ccccc2/C1=C/c1cnc(-c2ccccc2)[nH]1
3,1.5,-3.8,-22,-27,2.5,-12,i,0.65,OC(COCCC12CC3CC(CC(C3)C1)C2)CN1CCCCC1 (stereo not drawn)
-8,4.3,-4.2,3,5,7.1,6,i,0.71,CCCOc1cccc(C2/C(=C(\O)c3ccc4c(c3)OCCO4)C(=O)C(=O)N2CCCn2ccnc2)c1 (stereo not drawn)
·,0.8,-6.4,-5,-6,·,·,i,·,CCOC(=O)c1ccc(NC(=O)c2nc[nH]c2C(=O)N[C@H](C)CO)cc1
1,-1.8,·,·,·,2.1,-151,·,0.67,Cc1cc(C)cc(NC(=O)C(OC(=O)c2ccc([N+](=O)[O-])o2)c2ccccc2)c1 (stereo not drawn)
4,-4.0,0.8,-8,1,2.1,-5,i,0.71,O=C(Nc1cccc(S(=O)(=O)N2CCCCC2)c1)c1ccc(OCC2CCCO2)cc1 (stereo not drawn)
9,-3.6,-0.7,-5,-2,·,·,i,·,COc1cc(/C=N/NC(=O)c2ccc3ccccc3c2)ccc1Oc1ccc([N+](=O)[O-])cn1
8,2.4,1.5,2,12,8.4,2,·,0.64,Cc1nc2ccc([N+](=O)[O-])cc2[nH]1
4,-0.8,-0.8,0,0,10,-9,i,0.69,Cn1c(O)c(N=NC(=O)CNC(=O)c2ccco2)c2ccccc21

# Next section
B2AR ag,HNF4A DNA FP,rRNA inh HTS RFP,rRNA inh HTS OD600,rRNA inh HTS,UCH37 inh,ALR inh,FGF22 binding,E coli growth,mol
0,1.2,·,·,·,-2.1,-2,·,0.74,CCOC(=O)CSc1nc(N)c2c3c(sc2n1)CCCC3
-4,9.5,0.4,2,7,-1.8,·,·,0.66,CCN(CC(=O)Nc1cccc(S(=O)(=O)N2CCOCC2)c1)Cc1ccccc1
-1,0.4,-1.3,0,2,·,1,i,·,CC1CCN(c2ccc(-c3cccc(NC(=O)C(F)(F)F)c3)nn2)CC1
4,-4.2,·,·,·,3.1,98*,·,0.68,Cc1ccc(C(=O)c2coc3ccc(O)c(Cl)c23)cc1
1,1.2,·,·,·,1.7,34,·,0.68,COc1ccccc1N1CCN(C(=O)CCNS(=O)(=O)c2ccc(Br)s2)CC1
0,-0.4,0.9,1,5,0.9,1,i,0.7,CC(C)(C)c1nnc(NC(=O)C2CC(=O)N(CCc3ccc(F)cc3)C2)s1 (stereo not drawn)
0,9.2,-0.3,10,3,3.1,-2,i,0.74,Cc1nc2ccc(NC(=O)c3ccc4ccccc4n3)cc2s1
-3,3.9,2.2,-11,-18,2.5,1,i,0.66,Cc1ccc(-c2cc(-c3c(C)nn(C)c(=O)c3N)[nH]n2)cc1
-3,-0.5,4.8,-7,-4,7.7,0,i,0.68,CCOC(=O)c1c(NC(=S)Nc2ccc(OC)cc2)sc2c1CCC2
7,6.4,-4.1,-4,-6,0.0,-8,i,0.65,COc1ccccc1CCC(=O)N1CCC(n2nccc2NC(=O)C2CCOC2)CC1 (stereo not drawn)
-19,-1.8,-10,0,-3,6.5,-2,i,0.72,CCc1ccccc1NC(=O)c1cc(S(=O)(=O)N2CCCC2)c[nH]1
2,-3.7,·,·,·,4.0,18,·,0.67,CCn1c(SCC(=O)c2cccs2)nnc1-c1cccs1

# Single records (already shown). Values in the order: B2AR ag, HNF4A DNA FP, rRNA inh HTS RFP, rRNA inh HTS OD600, rRNA inh HTS, UCH37 inh, ALR inh, FGF22 binding, E coli growth
# `O=C(CNC(=O)c1ccccc1Cl)Nc1ccncc1` is listed as 10, 1.3, 0.7, 1, 5, 0.4, ·, i, 0.68
# `CC1=C(C(=O)N2CCOCC2)CC(CC(=O)NC2CCCC2)C(=O)N1Cc1ccc(C(C)(C)C)cc1` (stereo not drawn) is listed as ·, 0.8, 1.0, -2, -2, ·, ·, i, ·
# `COc1ccc(C(=O)Nc2c(N)nc[nH]c2=O)cc1` is listed as 4, 2.4, 0.7, 5, 22, 1.7, -3, i, 0.65
# `CCc1ccc(NC(=O)C[n+]2cc(-c3ccc(C)cc3)n3c2CCC3)cc1` is listed as 1, 5.4, -12, -80, -49, 5.7, 3, i, 0.6

# (next part)
B2AR ag,HNF4A DNA FP,rRNA inh HTS RFP,rRNA inh HTS OD600,rRNA inh HTS,UCH37 inh,ALR inh,FGF22 binding,E coli growth,mol
-5,1.1,·,·,·,0.9,91*,·,0.68,CCOC(=O)c1ccc(N2C(=O)CC(Sc3nnc(C)s3)C2=O)cc1 (stereo not drawn)
-4,2.6,-3.4,9,18,·,4,i,·,CCCCC/C=N\NC(=O)Cc1ccc([N+](=O)[O-])cc1
-2,-0.4,1.0,-20,-3,2.1,-2,i,0.72,O=C(c1ccc(-n2ccnc2)cc1)N1CCCC(CO)(Cc2cccc(Cl)c2)C1 (stereo not drawn)
-7,0.9,-6.6,-44,-19,4.8,·,i,0.69,Nc1nc(SCc2ccccc2)c2ncn(C3CCCCC3)c2n1
